# TRPV1 potentiator: human TRPV1 potentiation; TRPV1-expressing cells, Fluo-8 calcium influx, capsaicin EC20 potentiation; host cell line not named in the record; control for the full effect not named in the record; potentiation, % at 8.33 µM; 320,000 compounds, 0.02% hits; active means potentiation above 80%; inconclusive means 30% to 80%; inactive means below 30%; note: 0% is about no effect
#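 Fluo-8 calcium influx in TRPV1-expressing cells, kinetic read (ex 480/em 520 nm). Compound added and read 3 min for agonist activity, followed by capsaicin at EC20 final and 2 min further read for enhancement.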
# TRPML1 ag: agonists of human TRPML1 channel | activation, % (concentration not given with the values) | Q9GZU1 | AID 624414 | TRPML1-expressing cells, Ca2+ dye fluorescence, FDSS; host cell line not named in the record; reference of the full effect not given here | 410,000 compounds, 0.12% hits; in the data active = activation above about 50%; inconclusive = about 30% to 50%; inactive = below about 30%; note: 0% is about no effect; the text of the record puts the active cut at 80%
# Target sequence (Q9GZU1 whole entry, looked up): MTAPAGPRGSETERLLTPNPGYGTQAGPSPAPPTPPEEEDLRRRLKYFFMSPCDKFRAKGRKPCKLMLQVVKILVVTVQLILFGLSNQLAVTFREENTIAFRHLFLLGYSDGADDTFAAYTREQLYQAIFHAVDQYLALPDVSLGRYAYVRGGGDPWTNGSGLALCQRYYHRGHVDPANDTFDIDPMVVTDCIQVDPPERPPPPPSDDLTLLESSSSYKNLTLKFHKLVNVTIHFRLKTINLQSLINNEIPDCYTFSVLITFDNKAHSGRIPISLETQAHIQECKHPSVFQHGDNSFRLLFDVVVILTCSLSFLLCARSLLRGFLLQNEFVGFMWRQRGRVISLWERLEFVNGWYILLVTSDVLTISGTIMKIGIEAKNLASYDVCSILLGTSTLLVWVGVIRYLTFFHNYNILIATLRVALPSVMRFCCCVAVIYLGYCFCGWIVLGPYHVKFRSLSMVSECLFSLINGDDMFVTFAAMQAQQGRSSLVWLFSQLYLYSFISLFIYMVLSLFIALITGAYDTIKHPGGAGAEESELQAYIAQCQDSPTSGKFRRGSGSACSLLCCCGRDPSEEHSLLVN
#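 Cells: TRPML1-DL, 1X Tet inducer, ~16 h at 37 degrees C/5% CO2. Dye: ABD Ca8 no-wash + quencher, 45-90 min RT. Read: 10 s baseline, compound add, 110 s agonist phase; 54-4 EC80 (4uM final), 110 s antagonist phase.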
# TRPML1 inh: inhibitors of human TRPML1 channel; Q9GZU1; TRPML1-inducible cells, Ca2+ dye fluorescence, FDSS; active compounds read low; inhibition of EC80 agonist-evoked calcium signal; activity change, negative = inhibition, % (concentration not given with the values); 390,000 compounds, 0.02% hits; AID 624415; in the data active means activity change below about -50%; inconclusive means about -30% to -50%; inactive means above about -30%;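 note: stimulus is agonist 54-4 at its EC80 concentration; % is set by controls: 0 for no effect and ±100 for the full control effect; the text of the record puts the active cut at -80%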
#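 Tet-induced TRPML1-DL cells loaded with Ca8 no-wash calcium dye were read kinetically on FDSS. Compound addition was followed by EC80 agonist 54-4 (4 uM final); inhibition was read over 110 s.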
# ClpP mod: qHTS Assay for Activators of ClpP | AID 651965, 2013 | ATP-dependent Clp protease proteolytic subunit (Bacillus subtilis (strain 168)), P80244 | Potency, µM (doses to about 57.5 µM), without a hit: top-dose activity change, negative = active | 340,000 compounds, 1.9% hits | purified B. subtilis ClpP, FRET peptide cleavage, 20 min; active = well fitted falling curve with a large enough effect; inconclusive = small, poorly fitted or top-dose-only effect; inactive = no such curve, though single readings can be large or run the other way; note: potency is the fitted concentration of half-maximal effect; the source files actives as falling curves though it sought activators and does not explain the sign; nearly all actives have a fitted effect of over 65% in size; many hits overshoot -100%
# Target sequence (P80244 whole entry, looked up): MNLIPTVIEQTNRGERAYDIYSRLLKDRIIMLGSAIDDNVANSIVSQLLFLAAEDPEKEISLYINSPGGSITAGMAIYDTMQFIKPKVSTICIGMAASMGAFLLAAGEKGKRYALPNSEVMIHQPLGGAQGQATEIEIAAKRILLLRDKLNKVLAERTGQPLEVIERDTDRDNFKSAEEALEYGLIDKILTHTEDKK
#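 Buffer: 100 mM Tris/HCl pH8, 100 mM KCl, 0.05% low protease BSA, 2.5% glycerol, 0.01% Tween-20. ClpP 10 microg/mL final; 20 min RT; delta FRET normalized to ADEP and DMSO controls.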
# Sfp inh: inhibitors of Bacillus subtilis Sfp phosphopantetheinyl transferase; 310,000 compounds, 3.5% hits; Potency, µM, for inactives: max response, negative = inhibition, most hits filed as inhibitors; Q9F4F7; AID 1490; Biochemical Sfp PPTase activity, qHTS; active = well fitted inhibition curve with a large enough effect; inconclusive = small, poorly fitted or top-dose-only effect, or another doubt; inactive = no such curve, though single readings can be large or run the other way;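 note: the enzyme is Sfp with the accession as filed and its product quenches rhodamine fluorescence; potency is the fitted concentration of half-maximal effect; 0% = enzyme reaction without inhibitor and -100% = no enzyme wells; top concentration of the series not given in the record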
#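 With Hepes-Na pH 7.6 buffer containing 10 mM MgCl2, Sfp (15 nM) modified BHQ-2-YbbR (12.5 uM) using rhodamine-CoA (5 uM). Two reads 30 minutes apart at 525/598 nm yielded each well's rate.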
# PINK1 modulator: modulators of PINK1 expression; AID 624263; Potency, µM (series often up to 76.6 µM), for inactives: at the top dose activation (PINK1 increase), most hits filed as activators; 410,000 compounds, 0.2% hits; PINK1 immunofluorescence, high-content cytometry, 24 h; active = well fitted activation curve with a large enough effect; inconclusive = small, poorly fitted or top-dose-only effect; inactive = flat fitted curve, though single readings scatter; cell line not stated here;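 note: potency is the fitted concentration of half-maximal effect; % of control where 0% means no effect; nearly all actives have a fitted effect of over 65% in size; a mitochondrial uncoupler was the plate control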
#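 A stable cell line was treated with compounds at 5 concentrations for 24 hours, with CCCP as control. PINK1 levels and mitochondrial localization were measured by immunofluorescence with mitochondrial, cell and nuclear markers after fixation, read by laser-scanning cytometry.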
# Menin MLL FP FL: inhibitors of human menin-MLL interaction, wild-type MLL peptide. Fluorescence polarization, fluorescein-MLL peptide displacement from menin. FP activity change, % at 61.4 µM. 290,000 tested, under 10 active. AID 1766; inconclusive = falling polarisation curve, or a change in total fluorescence; inactive = total fluorescence flat and polarisation flat or rising; no compound was filed as active; the % refers to the polarisation; negative = inhibition;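 note: % of control where 0% means no effect; inhibitors lower the polarisation; unlabelled MLL peptide was the positive control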
# * hit, by the source's call; ? = inconclusive; nt = no result given; & = joins results of further samples; [ ] = dose if it differs, or a comment.
# Each structure is followed by: Sfp inh	Menin MLL FP FL	TRPML1 ag	PINK1 modulator	TRPV1 potentiator	TRPML1 inh	ClpP mod
1. O=C(CSC1=Nc2ccccc2C2=NC(CC(=O)NC3CCCCC3)C(=O)N12)Nc1ccc(F)cc1 (stereo not drawn)
  nt	nt	1.4	5.1%	nt	31.9	14.1µM*
2. COc1ccc(-c2coc3c(C(=O)Nc4cccc(NS(C)(=O)=O)c4)cccc23)c(C)c1
  nt	nt	0.3	6.6%	nt	nt	?
3. O=C(Nc1ccc(F)c(Cl)c1)[C@@H]1O[C@H](CO)[C@H](O)[C@H](O)[C@H]1O
  nt	nt	-0.1	-0.4%	nt	nt	-0.1%
4. Cn1c(=O)c2c(nc(SCCOc3ccc4ccc(=O)oc4c3)n2C)n(C)c1=O
  18.5%	-1.4	nt	nt	8.7	nt	nt
5. CCCCN1C(=O)C(CC(=O)NCCCN(C)C)CC(C(=O)N(C(C)C)C(C)C)=C1C (stereo not drawn)
  nt	nt	-0.5	0.2%	nt	nt	0.6%
6. COc1ccc(C)cc1NC(=O)C(OC(=O)c1cc(C)oc1C)c1ccccc1 (stereo not drawn)
  -0.2%	-2.5	1.1	2.7%	11.3	3.5	1.2%
7. Cn1c(CN2CCOCC2)nnc1SCC(=O)Nc1nccs1
  18.4%	0.9	0.2	-1.4%	nt	6.6	0.0%
8. CC(C)(C)C(=O)NC1(C(F)(F)F)N=C2SCCN2C1=O (stereo not drawn)
  -2.0%	-0.2	0.1	-1.2%	1.6	2.2	0.3%
9. CC1CCCCC12NC(=O)N(CC(=O)NC(=O)Nc1ccc3c(c1)OCCO3)C2=O (stereo not drawn)
  3.8%	-0.8	0.8	-2.5%	-14.1	56.8	-3.8%
10. C=CCNC(=S)N1CCN(c2cc3c(cc2F)c(=O)c(C(=O)O)cn3CC)CC1
  21.7%	-1.9	-0.2	-0.8%	-2.1	16.2	nt
11. O=C(NCc1cccs1)c1ccc(Cl)c(S(=O)(=O)N2CCCC2)c1
  0.6%	-4.3	-0.9	-0.5%	6.9	2.3	nt
12. O=C1CN(C(=O)CNCc2cccc(Cl)c2)c2ccccc2N1
  -19.4%	-0.7	-0.5	-0.8%	15.0	22.7	0.2%
13. CC(=O)Nc1ccccc1-c1nnn(CC(=O)Nc2ccc3c(c2)OCCO3)n1
  -8.1%	4.6	2.2	-0.8%	-16.7	4.4	nt
14. O=C1CC[C@H](O)CCN1[C@H](CSc1ccc(Br)cc1)Cc1ccccc1
  nt	nt	-0.6&-0.6	0.2%	-11.0	24.8	-3.0%&-0.7%
15. CC(C)Oc1ccc(Cn2c(=O)oc3ccccc32)cc1
  -1.6%	-1.2	2.0	-1.4%	-5.1	15.7	-1.1%
16. COc1ccc(COC(=O)C2=C(C)NC(=O)NC2c2ccc(OC)cc2)cc1 (stereo not drawn)
  20.4%	-1.2	0.3	6.2%	-9.6	-3.8	3.1%
17. CC(=O)N1CC2(CC(c3ccccc3C(F)(F)F)=NO2)CN1c1ccc(Cl)cc1 (stereo not drawn)
  nt	nt	0.9	-0.6%	nt	64.7	1.2%
18. Cc1ccc(S(=O)(=O)N2CCOCC2)cc1C(=O)OC1CCCCC1=O (stereo not drawn)
  -1.6%	-5.9	-0.1	-1.3%	-0.3	-11.9	nt
19. O=C(CCc1ccccc1)NCc1nc2cccnc2n1Cc1ccc(F)cc1
  nt	nt	-0.2	-1.5%	nt	-0.2	-1.5%
20. COc1ccc2[nH]c(CN3CCN(CCC(C)C)C(CCO)C3)c(C)c2c1 (stereo not drawn)
  1.7%	-0.4	-0.5	-0.6%	9.8	-9.2	-22.6%
21. Cc1ccc(S(=O)(=O)N2CCN(c3nc(-c4ccccc4)nc4ccccc34)CC2)cc1
  nt	nt	-0.3	-0.5%	nt	nt	-0.8%
22. Cn1c(=O)[nH]c(=O)c2c1nc(CN1CCOCC1)n2Cc1ccccc1
  7.3%	5.3	0.7	-5.0%[38.3 µM]	-2.2	-3.6	-3.9%
23. CN(C)C(=O)C1C2NC(=S)N(c3ccc(Cl)cc3)C1(C)Oc1ccc(Cl)cc12 (stereo not drawn)
  -16.8%	0.9	0.0	4.3%	-7.5	-7.8	-1.3%
24. COc1cc(C(Nc2ccccn2)c2c(NC(=O)c3ccco3)sc(C)c2C)cc(OC)c1OC (stereo not drawn)
  -2.2%	7.2	-1.3	-0.6%	-18.4	-10.8	-3.1%
25. Cc1ccc[n+](CC(=O)c2ccccc2)c1
  -8.5%	-3.1	nt	nt	-8.9	nt	nt
26. COc1ccc(CN(C)C(=O)C2CCN(C(=O)Nc3ccccc3)CC2)cc1
  nt	nt	-0.1	3.5%	1.5	11.8	-1.2%
27. CCC(=O)N1CCc2cc(S(=O)(=O)NC(C(=O)NCc3ccc(OC)cc3)C(C)C)ccc21 (stereo not drawn)
  nt	nt	-0.1	-1.0%	nt	-7.9	-1.2%
28. CC(NC(=O)Nc1ccccc1)C(c1cccs1)N1CCOCC1 (stereo not drawn)
  23.9%	1.0	-0.1	-1.2%	8.1	-2.4	-1.1%
29. O=C(O)c1ccc(/C=N/Nc2ncc(C(F)(F)F)cc2Cl)cc1
  28.2µM*	-3.4	0.5	0.2%	nt	27.4	nt
30. CCOc1ccccc1N1CCN(C(=O)c2cccc(-c3ccc(O)cc3)c2)CC1
  -21.5%	-1.9	-0.3	-1.3%	-8.2	-9.2	-1.1%
31. Cc1ccc(S(=O)(=O)N(C)c2ccc(C(=O)N3CCCCC3)cc2)cc1
  -1.3%	0.2	-0.1	nt	-20.4	8.6	-2.0%
32. Cc1cccc(C)c1OCCNC(=O)c1ccc2ccccc2n1
  ?	-5.9	4.1	7.6%	2.4	4.9	-4.9%
33. Cc1ccc(C)c2c1cc(C)c1nnc(SCC(=O)N3CCCc4ccccc43)n12
  14.0%	-1.3	1.9	0.6%	-8.2	0.2	-7.1%
34. CCc1cccc(CC)c1NC(=O)C[n+]1cccc(C(N)=O)c1
  19.4%	-2.9	0.6	0.4%	-4.1	6.5	nt
35. COc1ccc2[nH]cc(CCNC(=O)COc3cc(C)cc4oc(=O)cc(C)c34)c2c1
  22.0%	-2.6	nt	0.0%	13.9	nt	-15.1%
36. NC(=O)CSc1nccn1Cc1ccccc1
  7.2%	11.0	0.2	1.2%	-16.2	11.0	-0.9%
37. Cc1ccc(S(=O)(=O)N2[C@@H](c3ccccc3)C(C(=O)O)=CC[C@H]2c2ccc3c(c2)OCO3)cc1
  nt	nt	-0.2	1.6%	19.8	11.3	-1.7%
38. COCCNC(=O)c1cc2c(c(-c3cccc(C#Cc4ccc(OC)c(OC)c4)c3)n1)[C@H](CCO)N(S(=O)C(C)(C)C)C2 (stereo partly drawn)
  nt	nt	-0.7	4.0%	nt	nt	-5.9%
39. FC(F)(F)c1ccccc1-c1nccc(NCCN2CCOCC2)n1
  ?	0.2	nt	-0.6%	nt	nt	nt
40. Fc1ccc(Nc2ncnc3ccc(-c4ccoc4)cc23)cc1
  -27.6%	3.9	nt	0.0%	nt	nt	nt
41. O=C(Nc1ccc2c(c1)OCCO2)C1c2ccccc2OCC(=O)N1CCc1c[nH]c2ccccc12 (stereo not drawn)
  nt	nt	-0.6	1.1%	nt	nt	-0.2%
42. Cc1ccc(C2(C(F)(F)F)NC(=O)N3N=C4CCCCCN4C3=C2C#N)cc1 (stereo not drawn)
  4.3%	0.8	0.4	-0.4%	1.1	-8.0	nt
43. CN1CCN(C(=O)OCCOCCOC(=O)N2CCN(C)CC2)CC1
  nt	nt	-0.2	-0.3%	nt	3.6	-0.8%
44. CC(C)Cn1c(N)c(C(=O)CSc2nnc(C3CC3)n2C2CC2)c(=O)n(C)c1=O
  nt	nt	-0.2	3.3%	11.3	-0.7	-0.7%
45. CC[C@]1(C(=O)OC)[C@H]2C(=O)N(Cc3ccccc3)C(=O)[C@H]2[C@H]2CN(C)C(=NCc3ccccc3)N21
  nt	nt	-0.8	-0.1%	nt	-2.2	4.1%
46. Cc1ccc(NC(=O)COC(=O)CCc2nc3ccccc3c(=O)[nH]2)cc1Cl
  8.6%	0.4	-1.0	3.0%	11.2	-5.5	nt
47. COc1cc(CNCC(C)C)c(Br)cc1OCC(=O)NCc1ccccc1
  9.0%	3.1	0.1	0.0%[38.3 µM]	-9.8	22.8	-2.1%
48. Cc1ccc(-c2cc[n+](Cc3ccccc3)cc2)cc1
  14.6%	0.0	-0.8	0.9%	0.2	-2.5	1.1%
49. O=C(CCCc1ccccc1)Nc1ccnn1C1CCN(Cc2ccccc2)CC1
  6.2%	nt	0.7	-0.3%	2.9	-8.3	2.4%
50. Cc1cc(C)n2nc(C(=O)NNC(=O)c3ccccc3)nc2n1
  79.4µM*	-0.1	-0.1	3.2%	6.7	13.5	-0.1%
51. COC(=O)c1cc(Cl)c(NC(=O)c2cc3ccccc3o2)cc1OC
  -0.5%	3.6	-0.1	1.7%	-8.8	-12.9	36.7%
52. COc1cc(CNc2ccc3[nH]c(=O)[nH]c3c2)ccc1OCc1ccc(F)cc1
  -4.8%	2.9	0.4	14.7%	-3.0	-5.6	1.0%
53. CCn1cc(C(=O)NCCC2=CCCCC2)c(=O)c2cc(S(=O)(=O)N(C)C)ccc21
  7.8%	8.6	1.5	1.3%	-2.2	-5.6	-2.1%
54. Cc1cccc(NC(=O)C(=O)NCC2CCCN2S(=O)(=O)c2cccs2)c1C (stereo not drawn)
  nt	nt	-0.8	3.1%	-8.9	19.7	-1.6%
55. COCCCNC(=O)Nc1ccc(F)cc1F
  24.9%	6.2	0.7	-0.8%	29.6	-0.4	-0.9%
56. O=C(Nc1ccc(O)c2c(=O)cc(-c3cccc(Cl)c3)oc12)c1ccccc1Cl
  -7.6%	5.3	0.8	0.0%	3.5	22.2	2.3%
57. CN(CCOc1cccc2ccccc12)Cc1ccccc1
  ?	-1.0	1.2	9.5%	-1.7	-12.4	-11.4%
58. O=C(NCc1ccc(OC(F)(F)F)cc1)c1cccc2c1C(=O)c1ccc(N3CCC(Cc4ccccc4)CC3)cc1S2(=O)=O
  nt	nt	1.4	15.8%	nt	24.0	0.7%
59. CC(=O)Nc1ccc(C(=O)COC(=O)CCc2ccccc2)c(F)c1
  nt	nt	0.0	-0.6%	-1.2	4.4	-3.5%
60. COc1ccc(/C=N/NC(=O)c2ccc(C)nc2)cc1O
  10.1%	-8.4	0.2	0.0%	10.7	3.7	nt
